Screening data (PubChem)
CDC25B CDK2 inh = human CDC25B-CDK2/CyclinA binding inhibition | P30305+P24941 | actives 0.72% (n = 94,000) | z-score (test concentration not listed) | HTRF CDC25B-CDK2/CyclinA binding, anti-His/anti-Flag; hits give high values | AID 1259370;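 further: score is relative to mean and SD of negative controls; strong numbers were not always called active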
TAR Tat displ = HIV-1 TAR-Tat binding disruption. actives 0.6% (n = 100,000). HIV-1 TAR RNA, Tat peptide displacement FRET; hits give high values. AID 1259389. z-score (concentration not given with the values);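 further: score is relative to mean and SD of negative controls; some compounds called inactive have numbers as strong as hits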
* marks the source's active call; other numbers are inactive results; . = no result given.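 How the source made its calls: active means z-score from 3 up in half or more of its runs; inactive means the rest.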

> Cc1ccccc1Oc1nc2ccccc2n2c(CCC(=O)O)nnc12
  CDC25B CDK2 inh = -0.45	TAR Tat displ = -1.4
> Cc1ccc(C2=NS(=O)(=O)N(C)C(C(=O)NCC3CCCO3)=C2)cc1 (configuration not stated)
  CDC25B CDK2 inh = -2.8	TAR Tat displ = 1.4
> CCOC(=O)c1cc(-c2ccc(S(=O)(=O)NCc3ccco3)s2)on1
  CDC25B CDK2 inh = .	TAR Tat displ = -1.7
> COc1cc(OC)c(NC(=O)N2CCC(CN3CCOCC3)CC2)cc1Cl
  CDC25B CDK2 inh = .	TAR Tat displ = 1.3
> O=C(NCc1ccco1)C(=O)NCC(c1ccco1)S(=O)(=O)c1ccccc1 (configuration not stated)
  CDC25B CDK2 inh = .	TAR Tat displ = 0.78
> CNC(=O)c1c(NC(=O)C2COc3ccccc3O2)sc2c1CCC2 (configuration not stated)
  CDC25B CDK2 inh = .	TAR Tat displ = 0.36
> Oc1ccccc1-c1nc2ccccc2[nH]1
  CDC25B CDK2 inh = -0.57	TAR Tat displ = 0.58
> N#Cc1c(NC(=O)COCc2cc(-c3cccs3)on2)sc2c1CCCC2
  CDC25B CDK2 inh = .	TAR Tat displ = 0.47
> Cn1c(=O)c2c(nc(NC3CCCCC3)n2Cc2c(F)cccc2Cl)n(C)c1=O
  CDC25B CDK2 inh = -0.66	TAR Tat displ = -0.54
> Cc1ccc(Cl)c2c1NC(=O)C2(O)CC(=O)c1ccc(F)cc1 (configuration not stated)
  CDC25B CDK2 inh = -1.6	TAR Tat displ = 0.59
> Cc1cc(C)n(CCc2nc3c4ccccc4n(Cc4ccc(Cl)cc4)c(=O)n3n2)n1
  CDC25B CDK2 inh = -3	TAR Tat displ = .
> Cc1nn(S(=O)(=O)c2cccs2)c(C)c1S(=O)(=O)N1CCC(C)CC1
  CDC25B CDK2 inh = .	TAR Tat displ = 0.61
> CCCCOC(=O)Nc1sc2c(c1C(=O)OC)CCC2
  CDC25B CDK2 inh = -1.6	TAR Tat displ = 0.27
> CC(C)(C)CC(=O)NCC(c1ccco1)S(=O)(=O)c1ccc(Cl)cc1 (configuration not stated)
  CDC25B CDK2 inh = .	TAR Tat displ = 0.24
> CN1C(=O)Cc2cc(S(=O)(=O)CCC(=O)N3CCc4ccccc4C3)ccc21
  CDC25B CDK2 inh = .	TAR Tat displ = 1.6

The list goes on (3 carried over from the part before).
> CCCCOC(=O)Nc1sc2c(c1C(=O)OC)CCC2
  CDC25B CDK2 inh = -1.6	TAR Tat displ = 0.27
> CC(C)(C)CC(=O)NCC(c1ccco1)S(=O)(=O)c1ccc(Cl)cc1 (configuration not stated)
  CDC25B CDK2 inh = .	TAR Tat displ = 0.24
> CN1C(=O)Cc2cc(S(=O)(=O)CCC(=O)N3CCc4ccccc4C3)ccc21
  CDC25B CDK2 inh = .	TAR Tat displ = 1.6
> COc1ccc(-c2nc3ncccn3c2NCc2ccc(F)cc2)cc1
  CDC25B CDK2 inh = .	TAR Tat displ = 0.31
> CC(C)S(=O)(=O)c1nnn(-c2cc(Cl)cc(Cl)c2)c1N
  CDC25B CDK2 inh = -0.63	TAR Tat displ = .
> CC(=O)N1CCOc2ccc(S(=O)(=O)N3CCOc4ccc(Cl)cc43)cc21
  CDC25B CDK2 inh = .	TAR Tat displ = 1.7
> CCCc1cnc2c(c1SCC(=O)Nc1nc(C)cs1)c(=O)n(C)c(=O)n2C
  CDC25B CDK2 inh = .	TAR Tat displ = 0.87
> Cc1nc(-c2ccccc2)nc2[nH]c(-c3ccccc3)cc12
  CDC25B CDK2 inh = -0.81	TAR Tat displ = 1.7
> c1ccc(-n2ncc3c(NCC4CCCO4)ncnc32)cc1 (configuration not stated)
  CDC25B CDK2 inh = -2.8	TAR Tat displ = .
> Cn1c(NC(=O)C2CCN(C(=O)c3cnn(-c4ccccc4)c3-n3cccc3)CC2)nc2ccccc21
  CDC25B CDK2 inh = -2.1	TAR Tat displ = 1.7
> Cc1cccc(NS(=O)(=O)c2ccc(-c3n[nH]c(C)c3C)s2)c1
  CDC25B CDK2 inh = .	TAR Tat displ = 1.1
> CCCC12CN3CC(CCC)(CN(C1)C3c1cccc(N)c1)C2=O (configuration not stated)
  CDC25B CDK2 inh = 1.6	TAR Tat displ = 0.12
> COc1cccc(-c2noc(N3CCN(c4ccccn4)CC3)n2)c1OC
  CDC25B CDK2 inh = .	TAR Tat displ = -0.48
> CSc1ccc(CN2CCN(CC3CC=CCC3)CC2)cc1 (configuration not stated)
  CDC25B CDK2 inh = -0.52	TAR Tat displ = 0.83
> O=c1c2cccnc2nc(SCc2cccc(F)c2)n1-c1ccccc1
  CDC25B CDK2 inh = -1.1	TAR Tat displ = -0.41
> O=C(NCC(c1ccco1)S(=O)(=O)c1ccc(Cl)cc1)c1cccs1 (configuration not stated)
  CDC25B CDK2 inh = .	TAR Tat displ = 1.2
> CCc1cc2c3c([nH]c2cc1S(=O)(=O)N1CCN(C)CC1)CC(C)(C)CC3=O
  CDC25B CDK2 inh = .	TAR Tat displ = 0.24
> CCn1nc(-n2cnnc2)c(NS(=O)(=O)c2ccc(C(C)C)cc2)c1C
  CDC25B CDK2 inh = 2.2	TAR Tat displ = -0.47

> CN(C1CCCC1)C1CCN(C(=O)Nc2ccc(F)cc2)CC1
  CDC25B CDK2 inh = -0.21	TAR Tat displ = 1.6
> COc1ccccc1NCc1nnc2n1CCCCC2
  CDC25B CDK2 inh = .	TAR Tat displ = -0.07
> Cc1[nH]c2ccccc2c1C1(O)C(=O)N(C/C=C/c2ccccc2)c2ccccc21 (configuration not stated)
  CDC25B CDK2 inh = -0.29	TAR Tat displ = -0.85
> Cc1cc(-c2ccc(S(=O)(=O)Nc3ccc(Cl)cc3F)s2)on1
  CDC25B CDK2 inh = .	TAR Tat displ = 0.89
> Cc1cn2c(nc1=O)OC1C(O)C(CO)OC12 (configuration not stated)
  CDC25B CDK2 inh = -2	TAR Tat displ = .
> COc1ccc(-c2cc(-c3nc(-c4ccc(OC)c(OC)c4)no3)[nH]n2)c(OC)c1
  CDC25B CDK2 inh = .	TAR Tat displ = 0.05
> CCc1cc(C(=O)Cc2nc3ccccc3s2)c(O)cc1O
  CDC25B CDK2 inh = -1.9	TAR Tat displ = -4
> Cc1noc2ncnc(NCCC(C)C)c12
  CDC25B CDK2 inh = .	TAR Tat displ = 1.9
> CCC(O)(c1ccc(C)cc1)C(CN1CCCC1)c1ccccc1 (configuration not stated)
  CDC25B CDK2 inh = -1.5	TAR Tat displ = -0.57
> COc1nc(-c2ccc(Cl)cc2)ccc1-c1noc(C(C)C)n1
  CDC25B CDK2 inh = 2.1	TAR Tat displ = 1.2
> O=C(c1cc(C2CC2)[nH]n1)N1CCN(Cc2ccc3c(c2)OCO3)CC1
  CDC25B CDK2 inh = .	TAR Tat displ = 1.1
> CCN1C(=O)C2(/C(=C(/O)c3ccccc3)C(=O)C(=O)N2CCN2CCOCC2)c2ccccc21 (configuration not stated)
  CDC25B CDK2 inh = 1.1	TAR Tat displ = -0.58
> N#CC1=C2SCN(C3CCCCC3)CN2C(=O)CC1c1ccc(Br)cc1 (configuration not stated)
  CDC25B CDK2 inh = -1.1	TAR Tat displ = -1.1
> O=C(NC1CC1)c1cc2cc3ccc(Cl)cc3nc2o1
  CDC25B CDK2 inh = .	TAR Tat displ = -3.5
> Cc1ccc2c(c1)N(C(=O)N1CCC(C(=O)NC(C)c3ccc4c(c3)OCCO4)CC1)CC(C)O2 (configuration not stated)
  CDC25B CDK2 inh = .	TAR Tat displ = 1.8

Some of the entries above in another layout:
Order of results: CDC25B CDK2 inh, TAR Tat displ
- COc1ccc(-c2cc(-c3nc(-c4ccc(OC)c(OC)c4)no3)[nH]n2)c(OC)c1
→ ., 0.05
- CCc1cc(C(=O)Cc2nc3ccccc3s2)c(O)cc1O
→ -1.9, -4
- COc1ccccc1NCc1nnc2n1CCCCC2
→ ., -0.07
- COc1nc(-c2ccc(Cl)cc2)ccc1-c1noc(C(C)C)n1
→ 2.1, 1.2
- O=C(NC1CC1)c1cc2cc3ccc(Cl)cc3nc2o1
→ ., -3.5
- Cc1ccc2c(c1)N(C(=O)N1CCC(C(=O)NC(C)c3ccc4c(c3)OCCO4)CC1)CC(C)O2 (configuration not stated)
→ ., 1.8
- O=C(c1cc(C2CC2)[nH]n1)N1CCN(Cc2ccc3c(c2)OCO3)CC1
→ ., 1.1

More structures follow.
> O=C(NCc1cccnc1)c1ccc2c(=O)n3c(nc2c1)CCCCC3
  CDC25B CDK2 inh = -0.57	TAR Tat displ = .
> COc1ccc(C2N=C(N3CCc4ccccc43)Nc3nc(C)cc(=O)n32)cc1 (configuration not stated)
  CDC25B CDK2 inh = -1.6	TAR Tat displ = -2.1
> Cc1cccc(-c2noc(COc3ccc(Cl)cc3)n2)c1
  CDC25B CDK2 inh = -2	TAR Tat displ = .
> CC(=O)N1CC=C(c2c(C)nn(C)c2N)CC1
  CDC25B CDK2 inh = -1.2	TAR Tat displ = 0.3
> O=c1[nH]c2ccc(Br)cc2c(-c2ccccc2)c1C1=NNC(c2ccco2)C1 (configuration not stated)
  CDC25B CDK2 inh = .	TAR Tat displ = 1.1
> CCCCSc1nc(=O)n(-c2ccc(Cl)cc2)c2c1CCC2
  CDC25B CDK2 inh = 0.7	TAR Tat displ = 1.3
> O=c1cc(Sc2ccc(Cl)cc2)c2ccccc2o1
  CDC25B CDK2 inh = -1.7	TAR Tat displ = .
> CCCCN(Cc1cc2cc(C)ccc2[nH]c1=O)S(=O)(=O)c1ccccc1
  CDC25B CDK2 inh = -2.8	TAR Tat displ = -0.1
> O=C(O)CCCC(=O)NCCc1ccncc1
  CDC25B CDK2 inh = 0.68	TAR Tat displ = 0.52
> CC(C)(C)C(=O)OCc1cc(=O)n2ccsc2n1
  CDC25B CDK2 inh = .	TAR Tat displ = 1.8
> Cc1cc(CNC(=O)Nc2ccccc2Br)c(C)n1-c1ccc(F)cc1
  CDC25B CDK2 inh = .	TAR Tat displ = -1.1
> ON=c1ccc2nc3ccccc3nc2cc1
  CDC25B CDK2 inh = 0.79	TAR Tat displ = .
> O=C(CCc1cc(Cl)no1)NCc1nnc(C(=O)Nc2ccc3c(c2)OCO3)s1
  CDC25B CDK2 inh = .	TAR Tat displ = 0.21
> Nc1ccccc1SCc1noc(-c2cccs2)n1
  CDC25B CDK2 inh = -5.4	TAR Tat displ = .
> CC(Sc1nnc(-c2cc3ccccc3[nH]2)o1)C(=O)N1CCc2ccccc21 (configuration not stated)
  CDC25B CDK2 inh = 2.3	TAR Tat displ = -0.61

Remaining list, next part
Structure	CDC25B CDK2 inh	TAR Tat displ
CCC1CN(S(=O)(=O)c2cc(-c3cc(C)no3)ccc2OC)c2ccccc2S1 (configuration not stated)	.	0.02
O=C(Cn1c(=O)c2cccn2c2ccccc21)NCCc1c[nH]c2ccccc12	.	0.6
CN1CCN(C(=O)c2ccc(CS(=O)Cc3ccc(Cl)cc3)o2)CC1 (configuration not stated)	.	0.16
CCCSCCCNC(=O)c1sc2nc(C)cc(C)c2c1-n1cccc1	-0.94	-0.95
O=C(CSc1nnc(-c2csc3c2CCCC3)o1)Nc1ccccc1	-2.6	-0.66
Cc1cccc(-c2nc(SCc3cc(=O)c4cccc(Cl)c4[nH]3)n[nH]2)c1	.	0.62
O=C(O)CSc1nnc2c3ccccc3n(Cc3ccccc3)c2n1	-1.4	-0.26
Cc1nn(-c2ccccc2)nc1C(=O)c1c(C)[nH]n(-c2ccccc2)c1=O	-1	.
Cc1nc2nc(NC(=O)C3CC3)[nH]n2c(=O)c1Cl	-0.73	0.33
O=C(Nc1ccc2c(c1)OCCO2)C1=NS(=O)(=O)c2ccccc2N1	.	-1
CC(=O)OC(C#CBr)c1ccccc1 (configuration not stated)	1.1	.
Cc1csc2ncc(C(=O)N3CCc4ccccc43)c(=O)n12	-1.1	.
Cn1c(=O)c2c(nc(N3CCNCC3)n2CC(=O)c2ccc(Cl)cc2)n(C)c1=O	-0.82	.
CCOC(=O)C1CCN(c2c(NCCC(C)C)c(=O)c2=O)CC1	-1.3	-0.54
COC(=O)C1=C(C)N=c2s/c(=C/c3cccnc3)c(=O)n2C1c1ccc(OC)cc1 (configuration not stated)	-0.86	.
CCC1CCCCN1CCCNC(=O)c1c(O)nc2c(C)cccn2c1=O (configuration not stated)	-3.8	-0.17
O=C(CN1CCSc2ccc(S(=O)(=O)N3CCCC3)cc21)NC1CCCCC1	.	-0.35
O=C(NCCc1cccs1)c1ccc(-n2ccc3ccccc32)s1	.	-0.24
O=C(CC1=NS(=O)(=O)c2ccccc2N1)Nc1ccc(Cl)cc1	.	0.53
O=S(=O)(c1ccc(F)c(Cl)c1)N1CCN(c2nc3ccccc3n3cccc23)CC1	-2.1	-0.42
CCCNC(=O)c1sc2ncccc2c1-n1cccc1	.	0.51
O=C(NC1CCCC1)c1ccc(N2CCSc3ccccc32)s1	.	1.4
Cc1cc2nc(CSc3nc(-c4ccccc4F)nc4cc(=O)[nH]n34)cc(=O)n2o1	.	-0.62
CCOC(=O)Cc1nc2ccccc2o1	-0.15	0.29
COCCCN(Cc1ccco1)C(=O)c1noc2c1COc1ccccc1-2	-1.5	1.3
CCOC(=O)c1cnc(SC)[nH]c1=O	.	1.2
O=c1c(-c2ccccc2Cl)c(C(F)(F)F)oc2c(CN3CCOCC3)c(O)ccc12	-1.5	2.9
COc1ccc(NC(=O)C(C)c2ccc(CC(C)C)cc2)cc1 (configuration not stated)	0.28	.
CC1=CCC2(C(=O)OC(C)(C)OC2=O)C(c2ccc(Cl)cc2)C1 (configuration not stated)	-0.41	.
CCOc1ccc(C(=O)c2cnc3ccc(OC)cc3c2S(=O)(=O)c2ccc(OC)cc2)cc1	-3.9	0.87
O=C(O)C1CCCN(S(=O)(=O)c2ccc3c(c2)CCCC3)C1 (configuration not stated)	-0.86	-0.38
Cc1ccc(C(=O)CSc2nccn(-c3ccc(C)c(C)c3)c2=O)cc1	.	0.07
COCCCN1C(=O)c2[nH]nc(-c3ccccc3O)c2C1c1ccc(OC)cc1 (configuration not stated)	-2.6	1.6
COc1ccc(C2/C(=C(\O)c3ccccc3)C(=O)C(=O)N2c2nc3ccccc3s2)c(OC)c1 (configuration not stated)	-2.4	0.93
COc1cc(OC)c(NC(=O)C2CC3CSCN3C23C(=O)Nc2ccccc23)cc1Cl (configuration not stated)	.	-2.4

Outcome played no part in choosing rows. About 0.94% of those tested had a hit in this group.
